# RGS16-Gao HTS – regulators of human RGS16-Galphao interaction; bead-based flow cytometry RGS16-Galphao binding, fluorescence; actives lie on both sides; binding response (% of control), % at 10 µM; hit rate 0.38% among 220,000;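 active = below 25% or above 175%, edge rows of some plates excepted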;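 also: Galphao activated by GDP with aluminum fluoride before binding; 100% = wells without compound and 0% = beads without RGS; some results beyond the cut were filed as inactive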
# Target sequence (O15492 whole entry, looked up): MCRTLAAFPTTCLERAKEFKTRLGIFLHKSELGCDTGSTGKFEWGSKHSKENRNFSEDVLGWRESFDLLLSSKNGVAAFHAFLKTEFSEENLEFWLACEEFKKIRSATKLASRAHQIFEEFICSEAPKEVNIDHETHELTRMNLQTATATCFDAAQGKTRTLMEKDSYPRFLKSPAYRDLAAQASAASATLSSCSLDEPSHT
# Target sequence (P09471 whole entry, looked up): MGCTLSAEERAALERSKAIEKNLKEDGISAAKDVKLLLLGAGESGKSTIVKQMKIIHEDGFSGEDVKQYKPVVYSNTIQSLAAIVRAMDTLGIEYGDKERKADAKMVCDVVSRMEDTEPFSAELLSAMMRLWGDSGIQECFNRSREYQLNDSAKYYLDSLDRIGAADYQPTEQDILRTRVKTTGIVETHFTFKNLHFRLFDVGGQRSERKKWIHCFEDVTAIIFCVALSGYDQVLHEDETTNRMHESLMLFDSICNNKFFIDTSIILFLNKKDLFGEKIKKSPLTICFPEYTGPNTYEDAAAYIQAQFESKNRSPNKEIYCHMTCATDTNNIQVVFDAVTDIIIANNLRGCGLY
# HSV replic up – HSV replication enhancement | HSV replication augmentation in cells, fold increase | maximum fold increase | hit rate 0.005% among 220,000 | AID 1956;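 active = peak rise of 1.5-fold or more in the series; inconclusive = self-fluorescent or not available for retest; tested in PC3 cells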;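 also: first round at 10 µM; read as green reporter fluorescence; hits show the peak of a series up to 25 µM; 1 = signal of infected wells without compound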
# PKD1 inh – blocks activity of human protein kinase D1; Q15139; inhibition, %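 (about 10 µM by stock and volumes)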; PKD1 kinase fluorescence polarization assay; hit rate 0.056% among 200,000; AID 797;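 active = inhibition of 50% or more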;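 also: controls were vehicle for no effect and a reference inhibitor for full effect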
# GALR2 agonist – activates the human galanin receptor 2. activation, %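 (tested at 5 µM)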. hit rate 0.48% among 140,000. O43603. GALR2-expressing cells, agonist activation read-out;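 active = above mean plus 3 SD of all compounds, about 5% in these data, not always enough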;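 also: 0% = vehicle buffer wells and 100% = reference agonist at full effect; tested in CHO reporter cells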
# Target sequence (O43603 whole entry, looked up): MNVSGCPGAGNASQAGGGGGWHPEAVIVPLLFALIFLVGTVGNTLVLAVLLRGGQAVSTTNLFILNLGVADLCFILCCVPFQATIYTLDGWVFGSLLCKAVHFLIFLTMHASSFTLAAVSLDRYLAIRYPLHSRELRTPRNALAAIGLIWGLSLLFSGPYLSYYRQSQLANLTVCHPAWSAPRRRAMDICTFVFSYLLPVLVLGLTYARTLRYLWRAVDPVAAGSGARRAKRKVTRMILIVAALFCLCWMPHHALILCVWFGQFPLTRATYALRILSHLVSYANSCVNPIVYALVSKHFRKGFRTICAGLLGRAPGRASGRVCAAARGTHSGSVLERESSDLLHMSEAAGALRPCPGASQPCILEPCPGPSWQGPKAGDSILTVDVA
# Insulin prom inh – TRM-6 insulin promoter activity inhibition | TRM-6 cells (human fetal islet line), insulin promoter-eGFP reporter, imaging; reporter expression induced with tamoxifen | inhibition, % at 2 µM | hit rate 0.9% among 130,000 | AID 1273;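 active = inhibition above the mean plus 3 SD, with well images judged a real hit on visual review, cut at about 60% in these data, passing the limit was not always enough; inconclusive = inhibition over the cutoff but images rejected on review; inactive = inhibition not above the cutoff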
# Insulin prom inh cell count – recorded beside Insulin prom inh, whose call it bears; normalized cell count, %; measured here: cell count, toxicity; reference of the scale not given here;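 cells exposed to compound for 48 h; stained nuclei by imaging scaled within each plate; lower means fewer cells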
# HSV replic up primary fold – recorded beside HSV replic up, whose call it bears; fold increase; compound at 10 µM; measured here: primary screen fold increase 10 uM; tested in PC3 cells;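 GFP signal in the first replicate; 1 = infected wells without compound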
# Numbers without * were called inactive; i = inactive; u = inconclusive; x = not tested or not shown.
SMILES,RGS16-Gao HTS,HSV replic up,HSV replic up primary fold,PKD1 inh,GALR2 agonist,Insulin prom inh,Insulin prom inh cell count
Cc1ccc2c(c1)-c1c(cnn1CC(=O)N(Cc1ccco1)C1CCCCC1)CO2,99,i,0.91,-7,-0.6,x,x
O=C(COc1ccc(F)cc1)Nc1ccc(-n2cnnn2)cc1,106,i,0.89,1,1.6,3,112
c1ccc2c(c1)SCc1nnc(-c3ccncc3)n1-2,102,i,1.1,x,x,x,x
CCCCCN1C(C)=CC(=C(C#N)C#N)C=C1C,99,i,0.93,-6,x,x,x
COc1ccc(C(=O)COC(=O)/C=C/c2ccc(S(=O)(=O)Nc3cccc(S(N)(=O)=O)c3)cc2)cc1,109,i,0.97,8,x,-10,115
CC1(C)Cc2c(C#N)c(N3CCN(C(=O)c4ccco4)CC3)nc(-c3ccco3)c2CS1,87,i,1.1,-8,2.2,20,89
CC(/C=N/NC(=O)Cn1cnc2c1c(=O)n(C)c(=O)n2C)=C\c1ccco1,91,i,1.1,x,x,x,x
O=C(Nc1ccccc1Cl)N1CCn2c(nc3ccccc32)C1,99,i,0.97,-9,-1.9,17,123
COC(=O)c1cn(NC(=O)C2CCCO2)c(=O)c2ccccc12 (configuration not stated),79,i,0.9,-4,0.7,-3,129
Cc1cc(C)cc(NC(=O)C2CCCC2)c1,101,i,1.1,-5,0.1,x,x
CSc1ccc(C2C(C#N)=C(N)Oc3c2ccc(=O)c2c(C)oc(C)c32)cc1 (configuration not stated),473,u,x,0,-1.1,-29,101
C=CCNc1nnc(SC2CC(=O)N(c3ccc(OCCC)cc3)C2=O)s1 (configuration not stated),102,i,0.68,-8,-0.8,40,94
O=C(CCCSc1nc2ccccc2[nH]1)NCc1ccco1,113,i,1,14,-2.9,13,97
CCOC(=O)CCc1c(C)c(C#N)c2nc3ccccc3n2c1-n1cnc2ccccc21,102,i,1,-1,0.1,-11,86
O=C(NCCCN1CCCC1=O)C1CCN(S(=O)(=O)N2CCOCC2)CC1,93,i,0.98,-3,-3.4,-131,73
Cc1ccc2c(c1)N(CC(=O)NCc1cccs1)C(=O)CO2,100,i,1.1,-3,-1.1,3,124
CNC(=S)NNC(=O)Cn1ccc(C)n1,105,i,0.81,-5,-1.7,0,91
COC(=O)c1c(C(=O)OC)c(-c2ccc(C)cc2)n2c1CS(=O)(=O)C2,101,i,0.99,0,1.0,-39,110
O=C(CSc1ccccc1F)NC1CCS(=O)(=O)C1 (configuration not stated),105,i,0.87,5,x,x,x
CCOC(=O)c1ccc(N=Cc2nc3ccccc3n2C)cc1,92,i,0.94,-9,-0.3,9,102

# Brought forward from above: 2 entries, then new ones.
SMILES,RGS16-Gao HTS,HSV replic up,HSV replic up primary fold,PKD1 inh,GALR2 agonist,Insulin prom inh,Insulin prom inh cell count
O=C(CSc1ccccc1F)NC1CCS(=O)(=O)C1 (configuration not stated),105,i,0.87,5,x,x,x
CCOC(=O)c1ccc(N=Cc2nc3ccccc3n2C)cc1,92,i,0.94,-9,-0.3,9,102
CC1CN(CCCOc2ccccc2-c2ccccc2)CC(C)O1 (configuration not stated),97,i,0.99,7,x,8,98
Cn1c(N)c(C(=O)COC(=O)c2ccc(Cl)c(S(=O)(=O)N3CCCCC3)c2)c(=O)n(C)c1=O,104,i,1,-5,-0.4,10,91
Cc1ccc(-c2noc(CSc3nnnn3C3CCCCC3)n2)cc1,112,i,0.88,-10,-2.4,x,x
CCOC(=O)N1CCC(NC(=O)C2CCN(S(=O)(=O)c3cccs3)CC2)CC1,107,i,0.92,4,-1.9,29,58
CN(c1cccc(NC(=O)CCSc2ccccc2)c1)S(C)(=O)=O,111,i,1.1,-11,-2.5,-52,77
O=C1CCc2cc(S(=O)(=O)N3CCN(c4cccc(C(F)(F)F)c4)CC3)ccc2N1,102,i,0.88,-3,-0.7,-9,96
Cc1ccc2c(c1)sc(=NC(=O)c1cccs1)n2C,101,i,0.9,-2,x,x,x
CCc1ccc(N2C(=O)CC(c3ccc(F)cc3)C3=C2COC3=O)cc1 (configuration not stated),111,i,0.99,7,x,13,77
CN(CCc1ccccn1)C(=O)Nc1cc(Cl)cc(Cl)c1,108,i,0.89,x,x,x,x
O=C1c2ccccc2C(=O)N1CC1=NCCc2ccccc21,86,i,0.99,-6,-3.1,17,125
Cc1ccc(N(CC(=O)NCc2ccco2)C(=O)CCC(=O)Nc2ccccn2)cc1C,104,i,0.87,-5,-1.6,-34,103
CCN(CC)CCCN(C(=O)c1ccco1)c1nc(-c2ccc(C)cc2)cs1,110,i,0.83,-9,x,x,x
Cc1ccccc1C(=O)Nn1cnc2ccccc2c1=O,100,i,0.88,-1,x,x,x
Cc1occc1C(=O)N1CCCC(CCC(=O)NCc2ccc(F)c(F)c2)C1 (configuration not stated),117,i,0.97,-8,x,x,x
CCN(CC)S(=O)(=O)c1ccc(/C=C/C(=O)Nc2ccc(F)c(F)c2F)cc1,103,i,0.84,-7,-0.6,12,166
COc1ccc(-c2cc3ccc(OCc4nn[nH]n4)cc3oc2=O)cc1OC,91,i,0.66,-9,-2.8,x,x
CC(C)n1c(CN2CCN(Cc3ccccc3)CC2)nc2ccccc21,99,i,1,x,x,x,x
Cc1cccc(NC(=O)C2CCCN(S(=O)(=O)c3cccc4nsnc34)C2)n1 (configuration not stated),101,i,0.98,-4,11*,x,x
CC(=O)COc1ccc(-c2csnn2)cc1,96,i,0.91,x,x,x,x
CC(=O)N(C)c1ccc(OCC(O)COc2ccc(N(C)C(C)=O)cc2)cc1,118,i,1,-3,-1.2,10,154
Cn1c(=O)c2cc(S(=O)(=O)NC(C(=O)Nc3cccnc3)c3ccccc3)ccc2n(C)c1=O (configuration not stated),98,i,1,-2,-4.6,x,x
CC(C)CSc1oc(-c2ccco2)nc1S(=O)(=O)c1ccccc1,99,i,0.97,x,x,x,x
COc1ccc(C(C)=O)cc1Cn1cnc2c(cnn2C)c1=O,102,i,1.1,x,x,x,x
O=C(Cn1c(=O)sc2ccccc21)Nc1ccc(O)cc1,101,i,1.1,0,x,7,25
CCN1CCN(S(=O)(=O)c2cccs2)CC1,98,i,0.53,-6,-0.8,-29,22
CCOc1ccccc1OCC(=O)Nc1nnc(C)s1,110,i,0.98,-9,0.3,x,x
O=C1CC(c2ccccc2)=NN1c1ccc([N+](=O)[O-])cc1,80,i,0.78,-17,x,x,x
O=c1oc2ccccc2cc1-c1cn2ccccc2n1,100,i,0.9,-7,x,x,x
COc1ccccc1OCC(=O)Sc1ccc(C)cc1,99,i,0.94,-6,-1.6,x,x
Cn1cc(/C=C2/SC(=O)N(CC(=O)Nc3ccc4c(c3)OCO4)C2=O)c2ccccc21,102,i,0.79,-4,-3.1,-4,156
CC(C)(C)NC(=O)NC(=O)Cn1ccsc1=N,94,i,1.1,-7,-1.4,10,68
CCCc1cc(-c2nc(-c3ccc(Br)cc3)cs2)ccn1,-6.4*,i,1.1,6,-0.5,-26,67
Cc1cc(C)cc(NC(=S)NCc2ccc3[nH]c4c(c3c2)CCCC4)c1,92,x,x,-11,-1.6,32,122
CCOc1ccc(C(=O)Nc2cccc(-c3nc4cccnc4o3)c2)cc1Cl,96,i,0.79,7,-0.4,46,105
CCc1ccc(/C=N/NC(=O)c2cc(-c3cccc([N+](=O)[O-])c3)n[nH]2)cc1,105,i,0.69,x,x,x,x
COCCCN(CC(=O)Nc1ccc(N2CCOCC2)cc1)S(=O)(=O)c1ccc(C)cc1,103,i,0.92,-3,x,x,x
O=C(CSc1ccccc1)NCc1cccnc1,102,x,x,-1,-0.9,x,x
COc1ccc(C2C(C(=O)N3CCN(c4ccccc4)CC3)c3ccccc3C(=O)N2C)cc1 (configuration not stated),189,i,0.75,-7,0.3,8,170
CSc1nnc(-c2ccc(NC(=O)CCc3ccccc3)cc2)n1C,100,x,x,-5,2.0,37,75
COc1ccc(CNC(=O)CSc2cc(=O)n(C)c3ccccc23)cc1,101,i,0.86,-3,x,-53,99
COc1ccccc1Oc1coc2c(CN3CCN(C)CC3)c(O)ccc2c1=O,80,i,0.93,-4,-0.3,-8,41
N#Cc1c2n(c3c(-c4ccccc4)ncnc13)CCC2,96,i,1.1,-4,0.1,-69,66
CC(C)(C)C1CCc2onc(C(=O)Nc3cccc(O)c3)c2C1 (configuration not stated),101,i,1.1,-7,-1.3,-42,222
COc1ccc2c(Cn3cnc4cc([N+](=O)[O-])ccc4c3=O)cc(=O)oc2c1,98,i,0.76,x,x,x,x
CCOc1ccc(NC(=O)CSc2nc3c([nH]c4ccccc43)c(=O)n2C)cc1,100,i,1.1,10,x,5,62
COC(=O)c1sccc1NC(=O)CCC1CCCCC1,100,i,1,0,-1.0,-81,104
Cc1ccccc1CS(=O)(=O)Cc1ccc(C(=O)NCc2ccco2)o1,99,x,x,-38,-2.5,53,40
CC(CN1CCOCC1)(NS(=O)(=O)c1ccccc1)c1ccccc1 (configuration not stated),89,i,0.86,5,0.3,-14,179
OC(C#CCN1CCOCC1)(c1ccccc1)C1CC1 (configuration not stated),98,i,0.95,-11,-1.5,9,118
CCCNC(=S)Nc1ccc(Cl)cc1C,92,i,1,2,-1.9,-100,116
O=C(Cn1nc(C(=O)O)c2ccccc2c1=O)c1cc(F)ccc1F,105,i,0.89,x,x,x,x
CCOC(=O)N1CCC(N2CCCC(C(=O)c3ccc4cc(OC)ccc4c3)C2)CC1 (configuration not stated),65,i,0.83,-8,x,14,95

# Shown with bars between the fields: part of the list above.
molecule | RGS16-Gao HTS | HSV replic up | HSV replic up primary fold | PKD1 inh | GALR2 agonist | Insulin prom inh | Insulin prom inh cell count
O=c1oc2ccccc2cc1-c1cn2ccccc2n1 | 100 | i | 0.9 | -7 | x | x | x
COc1ccccc1OCC(=O)Sc1ccc(C)cc1 | 99 | i | 0.94 | -6 | -1.6 | x | x
Cn1cc(/C=C2/SC(=O)N(CC(=O)Nc3ccc4c(c3)OCO4)C2=O)c2ccccc21 | 102 | i | 0.79 | -4 | -3.1 | -4 | 156
CC(C)(C)NC(=O)NC(=O)Cn1ccsc1=N | 94 | i | 1.1 | -7 | -1.4 | 10 | 68
CCCc1cc(-c2nc(-c3ccc(Br)cc3)cs2)ccn1 | -6.4* | i | 1.1 | 6 | -0.5 | -26 | 67
Cc1cc(C)cc(NC(=S)NCc2ccc3[nH]c4c(c3c2)CCCC4)c1 | 92 | x | x | -11 | -1.6 | 32 | 122
CCOc1ccc(C(=O)Nc2cccc(-c3nc4cccnc4o3)c2)cc1Cl | 96 | i | 0.79 | 7 | -0.4 | 46 | 105
CCc1ccc(/C=N/NC(=O)c2cc(-c3cccc([N+](=O)[O-])c3)n[nH]2)cc1 | 105 | i | 0.69 | x | x | x | x
COCCCN(CC(=O)Nc1ccc(N2CCOCC2)cc1)S(=O)(=O)c1ccc(C)cc1 | 103 | i | 0.92 | -3 | x | x | x
O=C(CSc1ccccc1)NCc1cccnc1 | 102 | x | x | -1 | -0.9 | x | x
COc1ccc(C2C(C(=O)N3CCN(c4ccccc4)CC3)c3ccccc3C(=O)N2C)cc1 (configuration not stated) | 189 | i | 0.75 | -7 | 0.3 | 8 | 170
CSc1nnc(-c2ccc(NC(=O)CCc3ccccc3)cc2)n1C | 100 | x | x | -5 | 2.0 | 37 | 75
COc1ccc(CNC(=O)CSc2cc(=O)n(C)c3ccccc23)cc1 | 101 | i | 0.86 | -3 | x | -53 | 99
COc1ccccc1Oc1coc2c(CN3CCN(C)CC3)c(O)ccc2c1=O | 80 | i | 0.93 | -4 | -0.3 | -8 | 41
N#Cc1c2n(c3c(-c4ccccc4)ncnc13)CCC2 | 96 | i | 1.1 | -4 | 0.1 | -69 | 66
CC(C)(C)C1CCc2onc(C(=O)Nc3cccc(O)c3)c2C1 (configuration not stated) | 101 | i | 1.1 | -7 | -1.3 | -42 | 222
COc1ccc2c(Cn3cnc4cc([N+](=O)[O-])ccc4c3=O)cc(=O)oc2c1 | 98 | i | 0.76 | x | x | x | x
CCOc1ccc(NC(=O)CSc2nc3c([nH]c4ccccc43)c(=O)n2C)cc1 | 100 | i | 1.1 | 10 | x | 5 | 62
COC(=O)c1sccc1NC(=O)CCC1CCCCC1 | 100 | i | 1 | 0 | -1.0 | -81 | 104
Cc1ccccc1CS(=O)(=O)Cc1ccc(C(=O)NCc2ccco2)o1 | 99 | x | x | -38 | -2.5 | 53 | 40
CC(CN1CCOCC1)(NS(=O)(=O)c1ccccc1)c1ccccc1 (configuration not stated) | 89 | i | 0.86 | 5 | 0.3 | -14 | 179
OC(C#CCN1CCOCC1)(c1ccccc1)C1CC1 (configuration not stated) | 98 | i | 0.95 | -11 | -1.5 | 9 | 118
CCCNC(=S)Nc1ccc(Cl)cc1C | 92 | i | 1 | 2 | -1.9 | -100 | 116

# Source: PubChem BioAssay
